Source: PubChem BioAssay
LANA-H2B inh: blocks KSHV LANA binding to histone H2A/H2B. cell-free LANA-H2A/H2B peptide, fluorescence polarization. inhibition, % (test concentration not listed). 0.6% of 320,000 active. AID 2629; in the data active means inhibition mostly above about 10%, no sharp cut-off; inactive means mostly below about 6.7%;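 further: stock transfer was 7.5 nL into about 10 µL; 0% = median of vehicle wells and 100% = median of positive control wells; one replicate is shown; the record names a cut of 25% in any replicate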
Target sequence (Q9QR71 whole entry, looked up): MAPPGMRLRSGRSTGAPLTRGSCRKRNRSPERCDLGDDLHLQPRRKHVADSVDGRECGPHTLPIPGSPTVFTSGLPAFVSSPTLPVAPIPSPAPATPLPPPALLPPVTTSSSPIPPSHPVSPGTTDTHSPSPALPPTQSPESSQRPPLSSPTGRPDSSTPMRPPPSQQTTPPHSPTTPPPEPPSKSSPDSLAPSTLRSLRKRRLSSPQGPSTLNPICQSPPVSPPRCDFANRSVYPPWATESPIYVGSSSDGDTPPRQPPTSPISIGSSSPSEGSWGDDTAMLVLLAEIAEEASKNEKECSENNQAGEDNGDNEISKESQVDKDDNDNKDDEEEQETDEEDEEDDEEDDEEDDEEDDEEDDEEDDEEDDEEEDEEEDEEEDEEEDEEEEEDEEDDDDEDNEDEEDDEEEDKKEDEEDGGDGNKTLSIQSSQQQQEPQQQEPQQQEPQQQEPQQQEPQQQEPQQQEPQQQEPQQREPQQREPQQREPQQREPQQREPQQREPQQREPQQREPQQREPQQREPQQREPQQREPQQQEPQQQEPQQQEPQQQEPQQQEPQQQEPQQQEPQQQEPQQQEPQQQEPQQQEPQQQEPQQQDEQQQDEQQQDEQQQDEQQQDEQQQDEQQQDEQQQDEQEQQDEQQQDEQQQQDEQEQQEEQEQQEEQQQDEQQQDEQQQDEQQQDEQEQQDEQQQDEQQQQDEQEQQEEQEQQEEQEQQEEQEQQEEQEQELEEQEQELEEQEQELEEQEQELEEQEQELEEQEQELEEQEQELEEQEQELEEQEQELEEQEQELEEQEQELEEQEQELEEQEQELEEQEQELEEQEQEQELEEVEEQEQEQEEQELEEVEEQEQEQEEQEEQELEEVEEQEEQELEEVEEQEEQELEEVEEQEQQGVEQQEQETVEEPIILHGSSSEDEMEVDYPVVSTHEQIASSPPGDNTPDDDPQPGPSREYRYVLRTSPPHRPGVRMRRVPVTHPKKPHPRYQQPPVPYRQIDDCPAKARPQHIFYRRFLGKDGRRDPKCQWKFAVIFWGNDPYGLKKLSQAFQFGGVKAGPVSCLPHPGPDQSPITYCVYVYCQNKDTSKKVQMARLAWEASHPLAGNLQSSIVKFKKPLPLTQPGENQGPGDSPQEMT
Ecoli growth: E. coli growth inhibition. 0.21% of 330,000 active. Escherichia coli growth, OD600, 23 h; active compounds read low. AID 1053175. OD600 absorbance (test concentration not listed);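 active means OD600 absorbance below the run mean of sample wells minus 3.6 SD, in any replicate, cut at about 0.56 in these data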;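 further: stock transfer was 300 nL into about 60 µL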
Vif A3G: inhibitors of Vif binding to APOBEC3G peptide, primary screen, biochemical, TR-FRET, GST-Vif 1-94, biotin-A3G peptide, dose response retest (AID 1117319); TR-FRET GST-Vif / biotin-A3G peptide binding; higher % means a stronger effect; test concentration not given here; strong numbers were not always called active; 0.57% of 260,000 active; one-dose inhibition, %; IC50 in µM for titrated hits;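 active means above the screen mean plus three standard deviations and confirmed in dose response; inconclusive means results disagree or hit not tested in dose response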;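 further: Vif residues 1-94 fused to GST binding biotinylated APOBEC3G peptide 110-148; 0% = full assay without inhibitor and 100% = GST in place of GST-Vif; retest series ran down from 100 µM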
UCH37 inh: human UCH37 deubiquitinating enzyme inhibition. Q9Y5K5. purified proteasome/UCH37, Ub-AMC cleavage fluorescence. inhibition, % (no concentration beside the values). 0.33% of 330,000 active. AID 588478;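 active means mean of two replicates above 20%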;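 further: 0% = compound-free wells with enzyme and 100% = wells lacking proteasome; stock transfer was 100 nL into about 20 µL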
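Material: Human UCH37 enzyme supplied as purified proteasome complex | Schedule: 30 min compound-proteasome preincubation then 25 min substrate reaction, room temperature | Detection: AMC fluorescence from Ub-AMC cleavage, excitation 355 nm, emission 460 nm | Benchmarks: Wells without proteasome as full block, compound-free enzyme plus substrate as uninhibited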
Bfl-1 A1 inh: inhibitors of the anti-apoptotic protein A1, read as caspase activation. MEF A1-2A-BIM cells, Caspase-Glo 3/7 luminescence, 3 h; percent of clofoctol response, vehicle zero. caspase activation, % (test concentration not listed). 0.066% of 330,000 active;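 active means over half of replicate activation scores above 10%, or exactly half above 10 with the replicate mean above 10; inconclusive means replicate mean below 10 yet half the replicates above 10; inactive means over half of replicates below 10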;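 further: wells of about 30 µL received 50 nL stock; many hits fall short of the cut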
Beta2AR agonist: activates human beta-2 adrenergic receptor causing internalization. Am2.2-beta2AR cells, FAP receptor internalization, flow cytometry; reference of the scale not given here. AID 504454. response, % (concentration not given with the values). 0.43% of 340,000 active;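 active means response above a set limit, near 3 SD of response in nonfluorescent compounds, cut at about 42% in these data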;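 further: stock transfer was 100 nL into about 11 µL; a reference agonist was the positive control; negative values mostly stem from fluorescent compounds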
HNF4A DNA FP: change in binding of human HNF4 alpha to DNA; P41235; HNF4a-FITC DNA binding, fluorescence polarization, 1 h; activity change, % at 10 µM; 0.3% of 360,000 active; AID 1224865; in the data active means activity change above about 30%, passing the limit was not always enough;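 further: controls were the assay level and a saturating level of protein; the project sought stronger binding though the title names inhibitors; some compounds called inactive have numbers as strong as hits; positive values seem to mean higher polarization but the record does not say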
The depositor's hits bear a star; i = inactive; ? = inconclusive; . = not tested or not shown; & = joins results of further samples.

SMILES	LANA-H2B inh	Ecoli growth	Vif A3G	UCH37 inh	Bfl-1 A1 inh	Beta2AR agonist	HNF4A DNA FP
Cc1ccc(S(=O)(=O)N2CCN(C(=O)COC(=O)CCOc3ccccc3C)CC2)cc1	3.8	0.68	-5%	0.6	-0.1	5	0.5
Cc1cc(NC(=O)c2cccnc2)ccc1NC(=O)c1ccco1	1.6	0.65	1%	0.5	-5.0	-2	0.9
CC(C)OC(=O)CC12CN3CC(CC(=O)OC(C)C)(CN(C1)C(=O)c1ccccc1C3=O)C2=O	-3.5	0.66	1%	-2.2	1.5	-1	1.0
Cc1ccccc1C(=O)Nc1ccc(S(=O)(=O)N2CCCC2)cc1	-0.4	0.65	.	2.8	-0.6	3	4.5
COc1ccc(C(C(=O)NC2CCCC2)N(C(=O)c2ccco2)c2ccccc2OC)cc1 (stereo not drawn)	-2.4	0.67	16%	1.6	0.3	-5	-4.2
COc1ccc(CNC[C@H]2O[C@@H](n3ccc(=O)[nH]c3=O)[C@H](O)[C@@H]2O)cc1OC	.	.	-4%	.	.	-7	0.6
CC(=O)NC(Cc1ccccc1F)C(=O)NC1CCN(c2ncccc2[N+](=O)[O-])CC1 (stereo not drawn)	1.1	0.7	-1%	4.9	-0.2	2	2.3
COc1ccc(C2=NOC(C(=O)NCc3ccccn3)C2)cc1 (stereo not drawn)	2.5	0.64	0%	-0.9	0.5	-8	-0.1
CCN(CC(=O)Nc1ccc(Br)cc1)CC(=O)Nc1cc(C)on1	.	0.64	8%	1.4	.	-3	2.8
CCOC(=O)c1cnc2c(-c3ccccc3OC)c(C)nn2c1C	-2.0	0.68	-3%	5.1	0.9	-1	1.6
Cc1cc(CN(C)C(=O)c2ccc3nc(Cc4ccccc4F)oc3c2)n[nH]1	0.3	0.71	-2%	1.1	0.0	5	-4.6
O=C(Nc1ccccc1)c1ccc(NCC2CCCO2)c(S(=O)(=O)N2CCOCC2)c1 (stereo not drawn)	-3.2	0.73	5%	3.7	0.6	-8	-0.7
COc1ccc2[nH]c(=O)c3c(c2c1)OC(C)(C)C=C3	-12	0.68	7%	-77	1.3	3	-0.3
CC(=O)N(C(C)=O)N1C(=O)C2C3c4ccccc4C(c4ccccc43)C2C1=O (stereo not drawn)	-2.6	0.66	-7%	3.3	-0.3	14	3.5
CSc1ccc(NC(=O)Nc2cc(C)ccn2)cc1	1.3	0.7	3%	1.2	-3.2	2	-2.5
COc1ccc(C)cc1NC(=O)CCNS(=O)(=O)c1cccc2nonc12	-0.5	0.69	-1%	4.0	0.6	-5	-0.5
CC(C)C1Cc2c(C#N)c(N)n(C)c(=S)c2CO1 (stereo not drawn)	3.0	0.7	-3%	6.2	-0.7	4	-7.0
CCOP(=O)(OCC)C(Nc1ccc(C(=O)O)cc1)c1ccccc1 (stereo not drawn)	-5.1	0.67	7%	3.8	-0.4	0	-1.2
COc1ccc(/C=C2\SC(=S)N(CCC(=O)N(CCO)c3ccccc3)C2=O)cc1OC	1.5	0.66	4%	7.6	0.1	11	-2.7
CC(C)(C)c1cnnn1-c1ccc(C(=O)CCl)cc1	-6.0	0.62	3%	4.4	1.7	45*	-1.7
CN1CCN(CCCNC(=O)c2ccc3c(Cl)c4c(nc3c2)CCCC4)CC1	-0.9	0.71	.	5.6	3.1	15	3.8
O=C(CSCc1ccc(Br)cc1)N1CCCC1	-3.9	.	-8%	.	-0.3	1	-2.7
O=C(CSc1ccc2c(c1)OCCO2)N1CCN(c2ccccc2O)CC1	.	0.66	14%	2.7	.	5	0.5
Cc1ccc(C(=O)N/N=C/c2ccc(N3CCOCC3)cc2)c(C)c1	-5.7	.	9%	.	-0.3	5	-1.5
O=C(/C=C/c1ccccc1[N+](=O)[O-])NCc1ccncc1	4.9	0.69	1%	3.5	-0.1	2	3.8

Molecules above that have four or more nitrogen atoms (5):
SMILES	LANA-H2B inh	Ecoli growth	Vif A3G	UCH37 inh	Bfl-1 A1 inh	Beta2AR agonist	HNF4A DNA FP
CC(=O)NC(Cc1ccccc1F)C(=O)NC1CCN(c2ncccc2[N+](=O)[O-])CC1 (stereo not drawn)	1.1	0.7	-1%	4.9	-0.2	2	2.3
CCN(CC(=O)Nc1ccc(Br)cc1)CC(=O)Nc1cc(C)on1	.	0.64	8%	1.4	.	-3	2.8
Cc1cc(CN(C)C(=O)c2ccc3nc(Cc4ccccc4F)oc3c2)n[nH]1	0.3	0.71	-2%	1.1	0.0	5	-4.6
COc1ccc(C)cc1NC(=O)CCNS(=O)(=O)c1cccc2nonc12	-0.5	0.69	-1%	4.0	0.6	-5	-0.5
CN1CCN(CCCNC(=O)c2ccc3c(Cl)c4c(nc3c2)CCCC4)CC1	-0.9	0.71	.	5.6	3.1	15	3.8

(listing goes on)
SMILES	LANA-H2B inh	Ecoli growth	Vif A3G	UCH37 inh	Bfl-1 A1 inh	Beta2AR agonist	HNF4A DNA FP
O=C(C[C@H]1C/C=C\C[C@H](Cc2ccc(F)cc2)C(=O)OC[C@@H]2CCCN2C1=O)N[C@H](CO)Cc1ccccc1	1.3	.	.	0.7	-0.2	2	-1.7
CCN(CC(=O)Nc1ccccc1C(F)(F)F)C(=O)c1ccccc1SCC(=O)N1CCCC1	35*	0.69	.	1.3	-0.8	-1	1.8
CCOC(=O)C1CCCN(C(=O)C2CCN(S(=O)(=O)c3ccc4ccccc4c3)CC2)C1 (stereo not drawn)	-2.2	0.69	.	5.7	-0.2	12	0.0
Cc1nnc(-n2ncc(C#N)c2N)c2nn(-c3cccc(Cl)c3)c(C)c12	5.1	0.71	8%	2.5	0.0	-14	12
COc1ccc(N(Cc2ccccc2)S(=O)(=O)c2cccc(C(=O)Nc3ccccn3)c2)cc1	-1.1	0.72	.	1.9	0.0	4	3.6
O=C(CNC(=O)c1nc[nH]c1C(=O)NCC(=O)OCc1ccccc1)OCc1ccccc1	2.6	0.69	.	2.8	-0.6	5	2.5
CC(=O)c1cc2c(cc1NC(=O)C1CC1)OCO2	5.2	0.76	3%	-13	1.1	4	0.7
COc1ccc(CNC(=O)c2cccnc2Sc2ccc(Cl)cc2)cc1	1.0	0.74	-4%	6.2	0.3	-2	-4.1
CC1CCCCN1Cc1c(O)ccc2c(=O)c(-c3ccc(Cl)cc3Cl)coc12 (stereo not drawn)	-0.6	0.68	.	i	0.2	-3	4.1
Cc1ccc(-c2cc(C(=O)n3cnc4ccccc43)c3ccccc3n2)cc1C	-2.8	0.71	18%	-29	-5.5	2	-0.8
CC(C)N(Cc1ccc(F)cc1)C(=O)c1cc2ccccc2oc1=O	2.2	.	-5%	.	0.0	-10	4.1
O=C(O)CC(CP(=O)(c1ccccc1)c1ccccc1)C(=O)O (stereo not drawn)	2.5	0.64	-2%	3.2	-0.9	0	-1.3
O=C(NC1CCCC1)C(c1ccc(F)cc1)N(C(=O)c1csnn1)C1CCCC1 (stereo not drawn)	3.3	0.67	.	1.5	0.3	-1	1.5
Fc1ccc(CN2CCCCCCC2)cc1F	-1.5	0.65	4%	1.5	0.1	3	1.7
Cc1cccc(N2C(=O)c3cccc4cccc(c34)C2=O)c1	6.7	0.71	.	3.8	0.1	5	0.3
COc1ccc(C(=O)NC(C)(C)C)cc1S(=O)(=O)N1CCCC1	-3.8	0.69	5%	0.9	0.4	-1	-2.8
CCOc1ccccc1C1N(c2ccc(OC)cc2)C(=O)C2CCCN21 (stereo not drawn)	7.5	0.75	0%	1.3	-0.7	5	1.8
CCN(CC)C(=O)[C@H]1CC(CC(=O)NC/C=C(\C)CCC=C(C)C)C(=O)N2CCc3c([nH]c4ccc(OC)cc34)[C@]12C (stereo partly drawn)	.	0.7	-4%	1.1	.	-3	-4.8
C=CC[C@@H](CC(=O)N[C@H](CO)Cc1ccccc1)C(=O)NCCOC(=O)[C@@H](CC=C)Cc1ccc(F)cc1	-2.2	.	.	6.9	-0.2	-1	-4.8
CCOc1ccccc1Nc1nc(-c2sc(NC(=O)c3ccco3)nc2C)cs1	-4.3	.	-2%	-3.4	0.4	-5	10
O=C(NNC(=O)c1cccc(Br)c1)C(=O)N1CCCCC1	0.5	0.65	?	6.6	0.0	-1	-5.6
CSc1ncc(Cl)c(C(=O)Nc2ccc(S(=O)(=O)N3CCOCC3)cc2)n1	-2.9	0.77	17%&-3%	3.0	-0.3	5	1.6
Cc1c(C)n2c(SCC(=O)Nc3ccc4c(c3)OCCO4)nnc2[nH]c1=O	.	0.67	-2%	-0.5	0.4	-6	-0.5
Cc1ccc(NC(=O)CCN2C(=O)C3C4CCC(C4)C3C2=O)cc1[N+](=O)[O-] (stereo not drawn)	-0.3	0.66	.	1.2	-1.0	6	3.4
Cc1cccc(OCC(=O)NCC(=O)N/N=C/c2ccccc2)c1	-1.8	.	.	.	-1.0	0	-1.2

Sorted by value in HNF4A DNA FP (rising): 5 from the list above
smiles,HNF4A DNA FP
O=C(NNC(=O)c1cccc(Br)c1)C(=O)N1CCCCC1,-5.6
CCN(CC)C(=O)[C@H]1CC(CC(=O)NC/C=C(\C)CCC=C(C)C)C(=O)N2CCc3c([nH]c4ccc(OC)cc34)[C@]12C (stereo partly drawn),-4.8
Cc1cccc(OCC(=O)NCC(=O)N/N=C/c2ccccc2)c1,-1.2
Cc1ccc(NC(=O)CCN2C(=O)C3C4CCC(C4)C3C2=O)cc1[N+](=O)[O-] (stereo not drawn),3.4
CC1CCCCN1Cc1c(O)ccc2c(=O)c(-c3ccc(Cl)cc3Cl)coc12 (stereo not drawn),4.1

(list continues)
SMILES	LANA-H2B inh	Ecoli growth	Vif A3G	UCH37 inh	Bfl-1 A1 inh	Beta2AR agonist	HNF4A DNA FP
O=C(Nc1nc2c(s1)CCCC2)c1cccnc1	6.1	0.64	5%	6.4	?	-14	2.2
Cn1c(=O)oc2cc(S(=O)(=O)Nc3ccc(Cl)cc3F)ccc21	-3.0	0.71	?	0.4	0.2	-13	2.0
CC(=O)c1ccc(NC(=O)COC(=O)c2nc(Cl)ccc2Cl)cc1	5.0	0.72	4%	-2.6	-1.0	6	2.1
Cc1ccc(N2C(=O)[C@@H]3[C@H](C2=O)C2CCCN2[C@@H]3C(=O)c2ccccc2)cc1 (stereo partly drawn)	1.7	0.72	13%	5.5	1.4	-10	-1.4
O=C(CCS(=O)(=O)c1ccccc1)N1CCOCC1	-4.2	0.74	31%	1.5	-0.9	0	0.7
COCCCNC(=S)N1CCN(c2nc(C)nc3sc4c(c23)CCCC4)CC1	1.1	0.63	.	6.9	0.7	1	1.2
COC(=O)c1sccc1NC(=O)NC1CCCCC1	4.2	0.69	-4%	5.2	-4.0	-4	-0.7
N#Cc1ccccc1NC(=O)COC(=O)/C=C/c1cn(-c2ccccc2)nc1-c1ccc(Cl)cc1	.	0.71	1%	-51	.	-5	1.6
Cc1cccc(NC(=O)Nc2cccc(C)n2)n1	0.7	0.67	-5%	2.4	0.0	4	2.3
Cc1ccc(CC23CN4CCN(CC(C4)C2O)C3)c(C)c1 (stereo not drawn)	-3.9	0.68	-3%	-2.2	0.4	-6	-1.5
